High-throughput results as filed in PubChem BioAssay.
PINK1 modulator = modulators of PINK1 expression. PINK1 immunofluorescence, high-content cytometry, 24 h. Potency, µM (titrated, usually from 76.6 µM), without a hit: at the highest dose activation (PINK1 increase), hits mostly activators. actives 0.2% (n = 410,000); active = well fitted activation curve with a large enough effect; inconclusive = small, poorly fitted or top-dose-only effect; inactive = flat fitted curve, though single readings scatter; cell line not stated here;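 note: % of control where 0% means no effect; nearly all actives have a fitted effect of over 65% in size; a mitochondrial uncoupler was the plate control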
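Stable cell line, 250 cells/well, 12 h attachment; compounds pinned at 5 concentrations, 24 h; CCCP control. Fixed with nuclear dye, primary antibodies 12 h at 10 degrees C, secondary plus cell stain; laser-scanning cytometer read.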
The depositor's hits bear a star; ? = inconclusive. Potency is the fitted concentration of half-maximal effect.

molecule | PINK1 modulator
Cn1cc(CN2CCC(C3(c4ccccn4)NC(=O)N(CC4CCCO4)C3=O)CC2)c2ccccc21 (stereo unspecified) | -0.8%
CCOC(=O)N1CCc2c(sc3c2c(=O)n(CCc2ccccc2)c(=O)n3CC(=O)Nc2ccccc2C)C1 | 0.3%
CCOc1cc(-c2nc(-c3ccc(-c4ccccc4)nc3OCC)no2)cc(OCC)c1OCC | 1.6%
O=c1ccc2cc(S(=O)(=O)N3CCCC3)ccc2[nH]1 | ?
CCOc1ccc(CNC(=O)C2CCCN(S(=O)(=O)c3ccc4c(c3)CCCC(=O)N4)C2)cc1 (stereo unspecified) | -0.1%
COc1ccc(NC(=O)c2oc3ccccc3c2NC(=O)COc2ccc(F)cc2)c(OC)c1 | 0.7%
CC1CCN(c2nn3c(=O)c(C(=O)NCCc4ccc(Cl)cc4)cnc3s2)CC1 | 0.4%
COc1ccc(-c2nc3cc(C)ccc3cc2CN(C(=O)c2cc(C)nn2C)C2CC2)cc1OC | 0.0%
Nc1nn(-c2ccccc2)nc1C(=O)OCc1ccccc1Br | 1.2%
COc1cccc(-n2c(C)nc3c(cnn3-c3ccc(C)c(C)c3)c2=O)c1 | -0.7%
COc1ccccc1CN1CCC2(CCC(CNC(=O)c3ccccc3N(C)C)O2)CC1 (stereo unspecified) | -0.6%
O=C(Nc1ccc(S(=O)(=O)N(Cc2ccccc2)c2ccccc2)cc1)c1ccccc1F | 1.5%
COc1cccc(N2CCN(C(=O)c3cc4c(s3)-c3c(C)cccc3OC4)CC2)c1 | 4.2%
CCOc1ccc(Cn2c(CNS(=O)(=O)c3ccc(Cl)s3)nc3cccnc32)cc1 | 4.3%
Cc1c(-c2ccccc2)c(=O)oc2c(CN3CCOCC3)c(O)ccc12 | -0.5%
CC(C)(C)C(=O)NCCc1nc2ccccc2n1CCCCOc1ccc(Cl)cc1 | 0.0%
CCOc1cccc(C2c3c(-c4cc(C)ccc4O)n[nH]c3C(=O)N2Cc2ccco2)c1 (stereo unspecified) | 2.9%
Cc1cc(C)c2c(=O)cc(C(=O)Nc3ccc(S(=O)(=O)Nc4nc(C)cc(C)n4)cc3)oc2c1 | 7.0%
Cc1ccc(-c2ccc(CCC(=O)O)n2-c2ccc(C(N)=O)cc2)cc1 | 1.6%
COc1ccccc1CCNC(=O)CCc1c(C)c2cc3c(C)coc3cc2oc1=O | 1.9%
Cc1ccc(Cl)cc1NC(=O)CN1C(=O)CSc2ccc(S(=O)(=O)N3CCCC3)cc21 | 2.1%
Cc1ccc(NC(=O)Cn2c(=O)n(CC(=O)NCCc3ccccc3)c(=O)c3ccccc32)cc1C | 4.5%
CCOc1ccc(C(=O)Nc2ccc(-c3nc4cc(CC)ccc4o3)cc2)cc1 | 1.4%
O=S(=O)(c1cccc(C(F)(F)F)c1)N1CCN(c2nc(-c3ccccc3)nc3ccccc23)CC1 | -0.3%
CC(C)c1ccc(OCC(=O)NCC(c2ccc(Cl)cc2)N2CCOCC2)cc1 (stereo unspecified) | -0.6%

Additional entries follow.
molecule | PINK1 modulator
CCC(C(=O)Nc1ccc(C(=O)OC)cc1)n1nc(-c2ccc(C)cc2)c2c(c1=O)CCCC2 (stereo unspecified) | 1.0%
CCS(=O)(=O)c1ncc(Cl)c(C(=O)Nc2c(C(=O)c3ccc(C)cc3)oc3ccccc23)n1 | 0.2%
Cc1cc(S(=O)(=O)Nc2cc3c(cc2Cl)n(C)c(=O)c(=O)n3C)ccc1F | -0.3%
Cc1nc2cc(NC(=O)C3CC34CCN(Cc3ccc(O)c(Cl)c3)CC4)ccc2s1 (stereo unspecified) | -0.8%
Cc1ccc2c(c1)ncc[n+]2CC(=O)c1ccc(Cl)cc1Cl | 0.2%
COc1ccc(CNC(=O)c2cnn(-c3ccccc3)c2-n2cccc2)cc1OC | -0.7%
CCc1ccc(S(=O)(=O)NCCc2csc3nc(-c4ccccc4)nn23)s1 | 1.2%
Cc1ccc2c(CC(=O)Nc3ccccc3C(F)(F)F)coc2c1C | 0.7%
CC(=O)c1cccc(NC(=O)CCc2c(C)nc3nc(CN)nn3c2C)c1 | 0.1%
CCOc1ccccc1-c1nc(-c2ccc(-c3ccccc3)nc2OCC)no1 | 0.0%
Cc1cc(C)cc(NC(=O)C(=O)NCC(c2ccc3c(c2)OCO3)N2CCN(C)CC2)c1 (stereo unspecified) | 1.5%
CCCCNC(=O)c1cccc(-n2cnc3cccnc32)c1C | -1.2%
CCSc1nnc2c(n1)OC(c1ccc(OC)c(OC)c1)N(C(C)=O)c1ccccc1-2 (stereo unspecified) | 0.1%
NC(=O)c1nc(-c2ccc(F)c(F)c2)nc2c1[nH]c(=O)n2-c1cccc(Cl)c1 | -0.9%
Cc1c(Cl)cccc1NC(=O)Cn1c(=O)cc(C)c2c(C)nn(-c3cccc(F)c3)c21 | 0.2%
COc1ccc(-c2nc3n(n2)C(c2ccccc2F)C(C(=O)Nc2cccnc2)=C(C)N3)cc1OC (stereo unspecified) | 0.8%
COc1ccccc1CNC(=O)CSc1nc(=O)[nH]c2c1CCC2 | 1.1%
O=C(C1CC1)N1CCN(c2nc3ccc(F)cc3s2)CC1 | -0.7%
CC(=O)c1cccc(NC(=O)CCc2c(C)nc3c(-c4ccc(F)cc4)c(C)nn3c2C)c1 | 0.1%
Cc1cc(C)c(CSc2nnc(C)n3c2cc2occc23)c(C)c1 | 7.0%
COc1ccc(N2CC(NC(=O)c3ccc4c(c3)OCO4)CC2=O)cc1 (stereo unspecified) | -1.1%
COc1ccc(NC(=O)CN(c2cc(C)cc(C)c2)S(=O)(=O)c2c(C)noc2C)cc1Cl | -0.4%
Cc1ccc2oc(-c3ccc(C)c(NC(=O)c4ccc(C(C)(C)C)cc4)c3)nc2c1 | 0.3%
Cc1cc2[nH]c(=O)c(=O)[nH]c2cc1S(=O)(=O)Nc1ccc(OC(F)(F)F)cc1 | 1.8%
COc1ccc(N2CCN(C(=O)c3nc(-c4ccc(Cl)cc4)n4c3CCCCC4)CC2)cc1 | 1.4%

Next compounds:
molecule | PINK1 modulator
COc1ccc(NC(=O)c2ccco2)cc1NC(=O)COc1ccc(Cl)cc1C | 2.8%
COc1ccc(-c2ccnc3c(-c4ccc(F)cc4)c(C)nn23)cc1OC | 0.8%
CN(Cc1ccccc1)c1ncnc2onc(-c3ccc(F)cc3)c12 | -4.1%
CCCNC(=O)CN1C(=O)CSc2ccc(S(=O)(=O)N3CCC(C)CC3)cc21 | -0.1%
Cc1cccc(Oc2ccc(NC(=O)CCC(=O)OCC(=O)c3ccc(Br)cc3)cc2)c1C | 4.0%
Cn1c(CNC(=O)CSc2n[nH]c(-c3ccccc3Cl)n2)nc2ccccc21 | -0.3%
CCOC(=O)c1cc(-c2ccc(OC)cc2)n(CCC(=O)NC2CCCCC2)c1C | 1.7%
COc1cccc(C2=NN(S(C)(=O)=O)C(c3cn(-c4ccccc4)nc3-c3cccs3)C2)c1 (stereo unspecified) | -0.3%
COCCNC(=O)CSc1c(C)cnc2c1c(=O)n(C)c(=O)n2C | -0.4%
CC(=O)N1c2nc(-c3ccco3)nn2C2(CCCCC2)[C@@H]2CCCC[C@@H]21 | 2.5%
CN(C)c1nc2cc3c(cc2cc1CN(CC1CCCO1)C(=O)c1cccc(F)c1)OCO3 (stereo unspecified) | 1.6%
COc1ccc(-c2nc(S(=O)(=O)c3ccc(Cl)cc3)c(N3CCCCCC3)o2)cc1 | -0.4%
CN(C)CCNC(=O)c1ccc(-n2c(-c3ccccc3)cc3c2CCCC3)cc1 | 0.3%
CCCOc1ccc(CC2C(=O)Nc3ccc(Br)cc32)cc1 (stereo unspecified) | 15%
CN(C)S(=O)(=O)c1ccc2c(c1)N(CC(=O)N1CCC(C(N)=O)CC1)CCS2 | -0.3%
COc1ccc(CNS(=O)(=O)c2cc3c(cc2C)n(C)c(=O)c(=O)n3C)cc1 | 3.0%
Cc1ccc(C)c(CN2C(=O)c3ccccc3S(=O)(=O)c3ccc(C(=O)NCCC4=CCCCC4)cc32)c1 | 1.1%
Cn1nc(C(=O)Nc2ccc(F)c(Cl)c2)c2c1-c1ccccc1S(=O)(=O)C2 | 1.5%
Fc1ccc2ncc3c(-c4ccccc4)n[nH]c3c2c1 | 1.1%
COc1ccc(-c2cc(C(F)(F)F)nc(NCc3ccccc3)n2)cc1OC | 6.3%
CCN1CCN(Cc2c(O)ccc3oc(C)c(C(=O)Nc4ccc(C)cc4C)c23)CC1 | -0.7%
COc1ccc(C(=O)Oc2ccc(C(c3c(C)[nH][nH]c3=O)c3c(C)[nH][nH]c3=O)cc2)cc1 | 2.3%
O=C(COc1ccc(F)cc1)Nc1ccccc1C(=O)OCc1cc(=O)n2ccsc2n1 | -0.9%
COc1ccc(CNc2oc(COc3cccc(C)c3)nc2C#N)cc1 | -0.1%
COc1ccc(N2C(=O)C(CC(=O)Nc3ccc(F)cc3)N(Cc3ccc4c(c3)OCO4)C2=O)cc1 (stereo unspecified) | 0.4%

6 compounds picked at random from those above, as already listed:
molecule | PINK1 modulator
CN(C)c1nc2cc3c(cc2cc1CN(CC1CCCO1)C(=O)c1cccc(F)c1)OCO3 (stereo unspecified) | 1.6%
COc1cccc(C2=NN(S(C)(=O)=O)C(c3cn(-c4ccccc4)nc3-c3cccs3)C2)c1 (stereo unspecified) | -0.3%
COc1ccc(NC(=O)c2ccco2)cc1NC(=O)COc1ccc(Cl)cc1C | 2.8%
Cn1nc(C(=O)Nc2ccc(F)c(Cl)c2)c2c1-c1ccccc1S(=O)(=O)C2 | 1.5%
COc1ccc(-c2cc(C(F)(F)F)nc(NCc3ccccc3)n2)cc1OC | 6.3%
Cn1c(CNC(=O)CSc2n[nH]c(-c3ccccc3Cl)n2)nc2ccccc21 | -0.3%

Continuation.
mol,PINK1 modulator
CC(=O)c1cccc(Nc2nc(-c3ccccc3Cl)nc3ccccc23)c1,3.5%
COc1ccc(N2CCN(C(=O)c3c(C)oc4nc(C)nc(N5CCCC5)c34)CC2)cc1,8.6%
CCn1c(=O)c2cc(C(=O)N(CCCOC(C)C)Cc3ccco3)sc2c2ccccc21,1.2%
CCc1ccccc1NC(=O)c1ccc2c(O)c(S(=O)(=O)c3ccccc3)c(=O)[nH]c2c1,0.0%
COc1ccccc1CCNS(=O)(=O)c1ccc(N2CCCCS2(=O)=O)cc1,0.7%
CN(C)CCNc1oc(-c2ccc(COc3ccc(Cl)cc3)o2)nc1C#N,-1.5%
COc1ccc(C2=Nn3c(nnc3-c3ccccc3C(F)(F)F)SC2)cc1OC1CCOC1 (stereo unspecified),1.3%
O=C1CC(c2ccccc2)Sc2ccccc2N1Cc1ccccc1F (stereo unspecified),11%

Other results follow.
mol,PINK1 modulator
COc1ccc(Cn2ccc3nc(C)c(C(=O)N4CCN(c5ccccc5F)CC4)cc3c2=O)cc1,-1.2%
COc1ccc(-c2cn3c(n2)sc2cc(C(=O)Nc4ccc(F)cc4)ccc23)cc1,1.0%
Cc1ccc(NC(=O)C2CCCN(c3ncnc4onc(C)c34)C2)cc1Cl (stereo unspecified),-1.7%
COc1ccc(CNC(=O)c2ccc3c(c2)N(C)C(=O)C2CCCCN32)cc1OC (stereo unspecified),2.7%
O=C(NC1CCN(Cc2ccccc2)C1)c1cnn(-c2ncc3c(n2)-c2ccccc2CC3)c1C1CC1 (stereo unspecified),1.1%
O=C(Nc1ncc(Cc2ccccc2)s1)C1CCN(C(=O)c2ccco2)CC1,0.7%
Cc1ccc(C)c(CN2C(=O)c3ccccc3S(=O)(=O)c3ccc(C(=O)NCc4ccccc4)cc32)c1,1.5%
CC(C)OCCCN(Cc1ccco1)C(=O)c1cc2c(s1)-c1ccccc1OC2,3.9%

Reprinted from the results shown (two entries):
mol,PINK1 modulator
COc1ccc(CNC(=O)c2ccc3c(c2)N(C)C(=O)C2CCCCN32)cc1OC (stereo unspecified),2.7%
O=C(NC1CCN(Cc2ccccc2)C1)c1cnn(-c2ncc3c(n2)-c2ccccc2CC3)c1C1CC1 (stereo unspecified),1.1%

An excerpt from above in order of their number in PINK1 modulator, rising:
Structure	PINK1 modulator
Cc1ccc(NC(=O)C2CCCN(c3ncnc4onc(C)c34)C2)cc1Cl (stereo unspecified)	-1.7%
COc1ccc(CNC(=O)c2ccc3c(c2)N(C)C(=O)C2CCCCN32)cc1OC (stereo unspecified)	2.7%
CC(C)OCCCN(Cc1ccco1)C(=O)c1cc2c(s1)-c1ccccc1OC2	3.9%

Next section
mol,PINK1 modulator
CC(C)c1cn(C2OC(COC(=O)c3ccccc3)C(OC(=O)c3ccccc3)C2OC(=O)c2ccccc2)c(=O)[nH]c1=O (stereo unspecified),-1.0%
O=C(CSc1ncc2c(n1)-c1ccccc1N(Cc1ccc(F)cc1)S2(=O)=O)NCCc1ccccc1,1.7%
CCOC(=O)c1ccc(NC(=O)CSc2nc3ccccc3c(=O)n2CCNC(C)=O)cc1,2.1%
CCN(CC)CCCNC(=O)c1ccc2nc(CCc3ccccc3)oc2c1,0.4%
COc1ccc(S(=O)(=O)NCCc2cn3ccsc3n2)cc1OC,3.2%
COc1ccc(-c2nc(CNC(=O)Nc3ccccc3)c(C)o2)cc1,0.9%
CCOC(=O)c1c(N)n(-c2ccccc2CC)c2nc3ccccc3nc12,6.4%
CC1=C(C(=O)Nc2cccnc2)C(c2ccccc2)n2nc(SCc3ccccc3Cl)nc2N1 (stereo unspecified),2.3%

Next section.
mol,PINK1 modulator
CCc1cccc(NC(=O)c2ccc(NC(=O)N3CCSc4ncccc43)cc2)c1,1.4%
COC(=O)[C@@H]1CCCN1Cc1ccc2c(c1)CN(Cc1cc(OC)c3c(c1)OCO3)CCO2,0.2%
Cc1cc2c(n1-c1ccc(C(=O)NCCc3ccccc3)cc1)CCC(C)C2 (stereo unspecified),1.5%
CCCCN(Cc1ccccc1)S(=O)(=O)c1cc(Br)cc2c1N(C(C)=O)CC2,0.6%
Cc1cccc(C)c1OCC(=O)Nc1c(C(=O)c2ccc(Br)cc2)oc2ccccc12,-0.3%
CCOc1ccccc1CNC(=O)CCC(=O)N1CCSc2ccccc21,0.0%
Cc1ccccc1NC(=O)Cn1c(=O)n(Cc2ccco2)c(=O)c2cccnc21,-0.7%

Only part of the results is shown (hit frequency here may not be typical).
